Screening results from PubChem.
GALR2 agonist = GALR2 receptor agonists, primary screen, cell-based | Galanin receptor type 2 (Homo sapiens), O43603 | GALR2-expressing cells, agonist activation read-out | activation, %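 (tested at 5 µM)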 | 140,000 tested, 0.48% active;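 active means above mean plus 3 SD of all compounds, about 5% in these data, not always enough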;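 further: 0% = vehicle buffer wells and 100% = reference agonist at full effect; tested in CHO reporter cells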
Target sequence (O43603 whole entry, looked up): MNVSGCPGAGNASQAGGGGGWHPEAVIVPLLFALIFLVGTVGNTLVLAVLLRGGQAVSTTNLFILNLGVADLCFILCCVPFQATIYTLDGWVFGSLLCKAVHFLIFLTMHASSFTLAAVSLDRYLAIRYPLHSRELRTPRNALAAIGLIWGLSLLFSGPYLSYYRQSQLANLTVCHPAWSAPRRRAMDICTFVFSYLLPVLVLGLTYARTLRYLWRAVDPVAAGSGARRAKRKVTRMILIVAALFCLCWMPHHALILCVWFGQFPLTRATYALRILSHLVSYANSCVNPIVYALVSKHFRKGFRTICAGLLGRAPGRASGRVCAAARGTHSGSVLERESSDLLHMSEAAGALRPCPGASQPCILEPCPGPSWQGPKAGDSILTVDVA
PKD1 inh = inhibitors of human PKD1 kinase, biochemical, fluorescence polarization; Serine/threonine-protein kinase D1 (Homo sapiens), Q15139; PKD1 kinase fluorescence polarization assay; inhibition, %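 (about 10 µM by stock and volumes)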; 200,000 tested, 0.056% active; AID 797, 2007;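 active means inhibition of 50% or more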;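 further: controls were vehicle for no effect and a reference inhibitor for full effect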
HSV augment = enhancers of HSV replication in host cells, fold increase, host cell viability | HSV replication augmentation in cells | maximum fold increase | 220,000 tested, 0.005% active | AID 1956, 2009;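 active means peak rise of 1.5-fold or more in the series; inconclusive means self-fluorescent or not available for retest; tested in PC3 cells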;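 further: first round at 10 µM; read as green reporter fluorescence; hits show the peak of a series up to 25 µM; 1 = signal of infected wells without compound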
RGS16-Gao = modulators of RGS16 binding to Galphao, primary screen, biochemical, human proteins, multiplexed bead flow cytometry | binding response (% of control), % at 10 µM | bead-based flow cytometry RGS16-Galphao binding, fluorescence; actives lie on both sides | AID 1441, 2008 | Regulator of G-protein signaling 16 (Homo sapiens) + Guanine nucleotide-binding protein … | 220,000 tested, 0.38% active;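 active means below 25% or above 175%, edge rows of some plates excepted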;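 further: Galphao activated by GDP with aluminum fluoride before binding; 100% = wells without compound and 0% = beads without RGS; some results beyond the cut were filed as inactive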
Target sequence (O15492 whole entry, looked up): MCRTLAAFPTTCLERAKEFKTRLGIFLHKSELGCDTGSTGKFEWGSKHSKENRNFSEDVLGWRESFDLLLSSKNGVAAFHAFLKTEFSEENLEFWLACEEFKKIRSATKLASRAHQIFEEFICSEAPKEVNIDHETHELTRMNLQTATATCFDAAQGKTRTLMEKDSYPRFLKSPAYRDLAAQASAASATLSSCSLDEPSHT
Target sequence (P09471 whole entry, looked up): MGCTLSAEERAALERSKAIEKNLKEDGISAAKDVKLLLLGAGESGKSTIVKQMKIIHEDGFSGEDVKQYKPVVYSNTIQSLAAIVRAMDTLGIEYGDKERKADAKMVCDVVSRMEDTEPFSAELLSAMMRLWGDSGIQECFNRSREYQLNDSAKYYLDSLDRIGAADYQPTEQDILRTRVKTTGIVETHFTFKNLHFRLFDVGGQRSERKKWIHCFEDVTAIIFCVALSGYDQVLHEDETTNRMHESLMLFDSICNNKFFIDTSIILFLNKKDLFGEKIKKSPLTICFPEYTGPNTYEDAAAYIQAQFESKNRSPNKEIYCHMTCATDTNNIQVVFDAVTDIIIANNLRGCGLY
INS promoter inh = inhibitors of insulin promoter-driven GFP, primary screen, imaging, TRM-6 cells (human fetal islet line), eGFP reporter, cell count; reporter expression induced with tamoxifen; 130,000 tested, 0.9% active; inhibition, % at 2 µM;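 active means inhibition above the mean plus 3 SD, with well images judged a real hit on visual review, cut at about 60% in these data, passing the limit was not always enough; inconclusive means inhibition over the cutoff but images rejected on review; inactive means inhibition not above the cutoff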
INS promoter inh cell count = second read-out of INS promoter inh, no call of its own (marks repeat the call); normalized cell count, %; measured here: cell count, toxicity; reference of the scale not given here;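 cells exposed to compound for 48 h; stained nuclei by imaging scaled within each plate; lower means fewer cells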
HSV augment primary fold = also measured in HSV augment; calls as there; fold increase; compound at 10 µM; measured here: primary screen fold increase 10 uM; tested in PC3 cells;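 GFP signal in the first replicate; 1 = infected wells without compound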
Numbers without * were called inactive; i = inactive; ? = inconclusive; . = no result given; + = active, no number; [ ] = dose if it differs, or a comment.

SMILES,GALR2 agonist,PKD1 inh,HSV augment,HSV augment primary fold,RGS16-Gao,INS promoter inh,INS promoter inh cell count
CCOC(=O)C1C(C)=CC(=O)CC1c1ccco1 (centres undefined),-1.1,-5,i,0.97,106,-27,88
Cc1c(-n2c(O)c(C3=c4ccccc4=NC3=O)sc2=S)c(=O)n(-c2ccccc2)n1C,.,8,i,0.89,97,15,81
Nc1nc(Nc2ccccc2)sc1C(=O)c1ccccc1,.,.,i,0.68,106,.,.
CC1CCCN(C(=S)Nc2ccc(F)cc2)C1 (centres undefined),.,-3,i,0.94,97,-15,105
CCOc1ccccc1NC(=O)CCn1cccc1,.,-6,i,0.83,102,.,.
Cc1cc(C)c2c(c1)/C(=N/NS(=O)(=O)c1ccc(Br)cc1)CCC2,-2.3,-7,.,.,104,0,86
O=C(NCC(=O)N(c1ccc2c(c1)OCO2)C(C(=O)NC1CCCC1)c1ccncc1)c1ccco1 (centres undefined),-1.9,3,i,0.94,91,-3,72
CC1=C(C(=O)OCc2ccc(C)cc2)C(c2ccc(O)c([N+](=O)[O-])c2)NC(=O)N1 (centres undefined),.,-3,i,0.91,112,89*,47*
CC(C)C(Nc1ncnc2c1oc1ccccc12)C(=O)O (centres undefined),.,-7,i,1,110,.,.
Clc1ccc(CN2CCN(/N=C/c3cccnc3)CC2)cc1,.,4,i,0.98,98,0,97
Cc1ccc(-c2nn3nnnc3c3ccccc23)cc1C,-0.4,3,i,0.84,107,32,50
COC(=O)c1c(C(=O)OC)c(-c2ccc(C)cc2)n2c1CS(=O)C2 (centres undefined),1.2,2,i,0.91,102,-50,114
Cc1cccc(NC(=O)NCC(c2cccnc2)N2CCOCC2)c1 (centres undefined),-2.9,-3,.,.,103,21,123
O=C(Nn1c(=S)[nH]c2ccccc2c1=O)c1ccncc1,-1.0,-8,i,0.98,97,65,126
O=C(Nc1ccncc1)Nc1ccc(F)cc1F,-2.2,2,i,0.95,90,48,123
CCC(C)NC(=O)c1n[nH]c(=O)c2ccccc12 (centres undefined),-1.0,-2,i,0.88,104,0,137
CC1CN(c2nc(Nc3ccccc3)nc(N)c2[N+](=O)[O-])CC(C)O1 (centres undefined),.,.,i,0.83,104,.,.
Cc1ccnc(NS(=O)(=O)c2ccc(NC(=O)c3ccc(S(=O)(=O)N4CCOCC4)cc3)cc2)n1,-0.7,-13,i,1.1,60,-88,41
CC(C)C(C(=O)NCC1CCCO1)N(Cc1cccs1)C(=O)CNS(=O)(=O)c1ccccc1 (centres undefined),.,1,i,1.1,102,.,.
Cc1ccc(-c2nnn(CC(=O)N(Cc3cccs3)C(C(=O)NC3CCCC3)c3ccco3)n2)o1 (centres undefined),0.9,-4,i,0.98,96,-10,100

Some of the entries above, set out differently:
Sequence of screens: GALR2 agonist | PKD1 inh | HSV augment | HSV augment primary fold | RGS16-Gao | INS promoter inh | INS promoter inh cell count
> Clc1ccc(CN2CCN(/N=C/c3cccnc3)CC2)cc1
→ . | 4 | i | 0.98 | 98 | 0 | 97
> Cc1ccc(-c2nn3nnnc3c3ccccc23)cc1C
→ -0.4 | 3 | i | 0.84 | 107 | 32 | 50
> COC(=O)c1c(C(=O)OC)c(-c2ccc(C)cc2)n2c1CS(=O)C2 (centres undefined)
→ 1.2 | 2 | i | 0.91 | 102 | -50 | 114
> Cc1cccc(NC(=O)NCC(c2cccnc2)N2CCOCC2)c1 (centres undefined)
→ -2.9 | -3 | . | . | 103 | 21 | 123
> O=C(Nn1c(=S)[nH]c2ccccc2c1=O)c1ccncc1
→ -1.0 | -8 | i | 0.98 | 97 | 65 | 126

Further compounds follow:
SMILES,GALR2 agonist,PKD1 inh,HSV augment,HSV augment primary fold,RGS16-Gao,INS promoter inh,INS promoter inh cell count
Cc1ccc(S(=O)(=O)Oc2ccc(C3C4=C(CCCC4=O)OC4=C3C(=O)CCC4)cc2)cc1,0.7,-4,i,0.98,84,-28,59
CCOC(=O)c1cnc(SCc2cccc3ccccc23)nc1N,-0.2,-2,i,0.84,116,0,123
COc1ccc(/C=C/C(=O)NCc2cnn(C)c2C)cc1COc1ccc(Br)cc1,-0.7,1,i,1.1,93,-16,89
CCc1ccc(CCC(=O)Nc2ccc(S(N)(=O)=O)cc2)o1,-1.3,3,i,0.96,126,-3,151
CCCCC(c1nnnn1C1CCCC1)N1CCN(C(=O)c2ccco2)CC1 (centres undefined),-1.4,-7,i,0.83,103,.,.
CCCCC(=O)Nc1cccc(C(C)O)c1 (centres undefined),.,5,i,0.93,102,0,117
Nc1nncn1C(=O)CCc1ccccc1,2.1,-9,i,0.71,108,24,64
CC1(C)CC2CC(C)(CN2S(=O)(=O)c2cccc(N)c2)C1 (centres undefined),-0.5,5,i,0.98,104,57,62
Cc1sc2ccccc2[n+]1CC(=O)O,.,.,i,1.1,83,.,.
O=C(CNC(=O)c1ccccc1)Nc1cccc(C(F)(F)F)c1,-0.7,2,i,0.96,+[activator],.,.
CN(c1ccc([N+](=O)[O-])cc1C(N)=O)C1CCCCC1,.,-2,i,0.95,109,5,105
CCN1CCCC1CNC(=O)CN1C(=O)COc2ccc(C)cc21 (centres undefined),-0.6,-15,i,0.83,115,.,.
C[C@@H](C(=O)NCc1ccccc1)N1C(=O)C2CC=CCC2C1=O (some centres undefined),-2.4,-4,i,0.9,91,-33,119
COc1cc(S(=O)(=O)N2CCN(c3ccccc3)CC2)ccc1F,.,-2,i,0.75,79,.,.
COC(=O)c1ccc(CN2CCC(CO)(Cc3cccc(OC)c3)CC2)cc1,.,2,i,0.93,104,-4,172
O=C(COc1cccc(-n2cnnn2)c1)Nc1ccccc1,-3.0,0,i,0.89,102,6,127
CCOC(=O)c1cn(CC(=O)Nc2ccc(C)cc2)nn1,-2.5,-1,i,0.87,105,.,.
S=C1CSc2ccccc2N1,.,-2,i,0.91,102,50,81
CC(=O)c1c(C)[nH]c(C(=O)O)c1C,.,1,i,1.1,103,9,96
CCOC(=O)Cc1csc(NC(=O)c2c(-c3c(Cl)cccc3Cl)noc2C)n1,-2.5,11,i,0.96,100,24,84
O=C(N/N=C\c1ccc(COc2ccc([N+](=O)[O-])cc2)o1)c1ccc(Cl)cc1,-3.5,5,i,0.66,100,46,64
Cc1cc(N2CCC(C)CC2)nc(-n2nc(C)cc2C)n1,-2.0,4,i,0.95,101,.,.
Nc1cc(-c2ccccc2)nn1Cc1ccccc1,.,-3,i,1.1,106,19,66
CC(C)CNC(=O)C1CCCN(C(=O)NCc2ccccc2)C1 (centres undefined),.,0,i,1.1,95,7,71
CCN(CC)CCCNc1nc2cc(OC)c(OC)cc2c2nc(-c3cccnc3)nn12,-0.7,-4,i,0.65,100,25,176
O=c1c2ccccc2sn1-c1ccccc1,-1.3,3,i,0.79,-5.3*,7,80
O=C(O)c1cc(-c2c[nH]c3ccccc23)nc2cc3ccccc3cc12,.,.,i,0.99,95,.,.
Cc1cc(NCCNC2=CC(=O)CCC2)nc2ccccc12,-1.3,-7,i,0.87,103,36,105
CC(C)NS(=O)(=O)c1ccc(OCC(N)=O)c(Cl)c1,-0.7,-3,i,0.87,122,-6,80
CCC(=O)NC(C)c1nc2ccccc2n1C (centres undefined),-0.6,1,i,0.98,94,.,.
Cc1ccc(OCc2nc(C#N)c(NCc3ccc4c(c3)OCO4)o2)cc1,-1.9,-2,i,1.1,79,-67,83
O=C(CCCn1c(=O)c2ccccc2n(CC(=O)N2CCN(c3ccccc3)CC2)c1=O)NCc1ccco1,.,-7,i,1,101,-62,126
CC(C)CC(=O)NC(=S)Nc1ccccc1C(=O)Nc1ccccc1,-4.1,3,i,1,103,-25,116
O=C(CC1CC2CCC1C2)OCC(=O)c1c[nH]c2ccccc12 (centres undefined),-1.2,1,i,0.99,90,6,64
CCCCOc1ccc(C(=O)NCCCC(=O)N2CCCCC2)cc1,0.7,-23,i,0.92,100,60,105
CS(=O)(=O)N(CC(=O)NCCSCc1ccccc1)c1ccc2c(c1)OCO2,.,4,i,1.1,102,-204,60
COc1ccccc1NC(=S)NCC1CCCO1 (centres undefined),-1.7,5,i,0.98,112,25,153
C=CCc1c(C)nc2c(C(=O)O)cnn2c1C,-0.6,-5,i,1.1,107,.,.
CSc1cccc(NS(=O)(=O)c2cccs2)c1,-2.8,0,i,0.87,102,18,119
NS(=O)(=O)c1ccc2nc(NC(=O)C3CCCO3)sc2c1 (centres undefined),-0.5,-19,i,0.96,92,18,139
COC(=O)C1=NN(C(=O)c2cccc(Br)c2)C(O)(c2ccc(Cl)cc2)C1 (centres undefined),.,-4,?,.,93,.,.
COc1ccc(CNC(=O)CCC(=O)Nc2nnc(CC(C)C)s2)cc1,.,.,i,0.98,105,.,.
COc1ccccc1-c1nnc(SCC(=O)NCc2ccco2)n1N,.,3,i,0.9,98,.,.
COc1cc(/C=C/c2ccc3c([N+](=O)[O-])cccc3n2)ccc1OCC(=O)O,.,.,i,0.9,88,.,.
Cc1sc2ncn(CC(=O)NCc3ccccn3)c(=O)c2c1S(=O)(=O)N1CCOCC1,-0.5,-6,i,0.93,257,-8,57
CCOc1ccccc1NC1=C(Cl)C(=O)N(c2ccccc2)C1=O,-0.7,3,i,0.98,103,-38,87
C#CCOCCOCCOCCNc1nc(N2CCN(C(=O)[C@H](C)n3cc(CCCN=C(N)N)nn3)CC2)nc(N2CCN(C(=O)[C@H](Cc3ccc(O)cc3)n3cc(CCO)nn3)CC2)n1,-0.9,1,.,.,113,-5,62
CC(C)OC(=O)/C(C#N)=C/c1cn(Cc2ccccc2)c2ccccc12,-1.2,5,i,1,99,.,.
Cc1cc(Cl)ccc1OCC(=O)NCCOc1nc(N2CCOCC2)nc(N2CCOCC2)n1,-0.4,-5,i,0.99,84,.,.
O=C(/C=C/c1ccco1)c1ccc(O)cc1,.,6,i,1,79,36,80
O=C(Nc1nc(-c2cccs2)c(C(=O)C(F)(F)F)s1)c1ccco1,.,13,i,0.9,103,-7,112
COC(C[C@@H]1O[C@H]1[C@H](O)COCc1ccccc1)OC,.,.,i,0.74,103,.,.
CCn1c(SCc2ccc(OC)cc2)nnc1-c1ccncc1,-1.6,-2,i,0.91,100,-123,139
O=C(Cc1cc(=O)[nH]c(=O)[nH]1)NCc1ccccc1,-1.8,-3,.,.,105,46,95
Cc1ccc(CSc2nnc3nc(C)cc(C)n23)cc1,-2.3,-7,i,1,95,10,116
Cc1ccc(OCC(=O)NCC(=O)Nc2ccc(F)c(F)c2F)c([N+](=O)[O-])n1,0.2,-1,i,0.98,106,.,.
O=c1c2[nH]c3cccc(Cl)c3c2ncn1Cc1ccncc1,0.3,4,i,0.96,95,.,.
